Screening data from PubChem BioAssay.
KCNQ2 inh: KCNQ2 potassium channel inhibitors, primary screen, cell-based, CHO-K1, FluxOR thallium flux, B-score (AID 2156); B-score at 10 µM; 20 min; stronger effect = lower value; only compounds with negative scores are shown here; some inactives read as strong as hits; O88943; 310,000 compounds, 1.1% hits;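 active = fluorescence ratio B-score at most minus 3 library SDs, with starting brightness B-score within 2 library SDs, cut at about -5.5 in these data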
Target sequence (O88943 whole entry, looked up): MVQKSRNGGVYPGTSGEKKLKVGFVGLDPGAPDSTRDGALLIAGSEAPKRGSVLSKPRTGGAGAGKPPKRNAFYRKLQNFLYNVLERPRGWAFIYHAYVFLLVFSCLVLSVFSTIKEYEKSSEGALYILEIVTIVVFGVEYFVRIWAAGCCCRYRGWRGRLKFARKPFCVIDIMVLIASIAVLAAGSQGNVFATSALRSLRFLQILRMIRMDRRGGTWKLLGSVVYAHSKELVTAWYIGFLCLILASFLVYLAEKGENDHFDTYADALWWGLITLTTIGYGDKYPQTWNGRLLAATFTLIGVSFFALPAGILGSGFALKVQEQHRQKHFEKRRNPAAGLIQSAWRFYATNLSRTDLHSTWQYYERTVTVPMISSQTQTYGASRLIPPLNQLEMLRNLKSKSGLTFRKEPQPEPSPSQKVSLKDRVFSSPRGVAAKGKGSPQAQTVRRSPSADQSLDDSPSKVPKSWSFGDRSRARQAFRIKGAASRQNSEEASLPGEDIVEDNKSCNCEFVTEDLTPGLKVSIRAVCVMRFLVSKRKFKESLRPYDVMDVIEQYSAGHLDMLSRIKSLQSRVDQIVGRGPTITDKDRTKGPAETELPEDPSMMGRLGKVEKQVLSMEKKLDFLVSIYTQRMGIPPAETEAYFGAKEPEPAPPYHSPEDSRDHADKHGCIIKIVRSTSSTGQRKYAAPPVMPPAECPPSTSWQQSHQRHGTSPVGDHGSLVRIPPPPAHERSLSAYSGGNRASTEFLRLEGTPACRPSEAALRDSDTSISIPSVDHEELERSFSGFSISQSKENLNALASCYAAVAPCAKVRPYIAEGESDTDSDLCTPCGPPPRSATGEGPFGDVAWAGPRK
KCNQ2 inh baseline: second read-out of KCNQ2 inh, no call of its own (marks repeat the call); B-score; measured here: initial fluorescence intensity artifact check;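 brightness before thallium and not channel activity; 0 = typical well and far values either way flag optical interference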
Starred values were filed as active, the others as inactive; i = inactive. The list is partial; rates above refer to the full screens.

Sequence of screens – KCNQ2 inh	KCNQ2 inh baseline
CCCCOCCCNc1ncnc2c1[nH]c1ccccc12
  i	-0.68
CCCCNC(=O)CCn1c(=O)c2ccccc2n(CC(=O)Nc2ccccc2OCC)c1=O
  i	-0.09
CCCCCCSc1ccc([C@H]2N[C@@](Cc3ccccc3)(C(=O)OC)[C@H]3C(=O)N(CC)C(=O)[C@@H]23)cc1
  i	-1.4
O=C(NC12CC3CC(CC(C3)C1)C2)c1cccnc1Cl
  i	-1.7
Cc1ccccc1N1CCN(S(=O)(=O)c2ccc3oc(=O)ccc3c2)CC1
  i	-1.3
CCOC(=O)c1ccc(S(=O)(=O)N2CCN(S(=O)(=O)CC)CC2)cc1
  i	0.96
CCc1ccc2[nH]c(=O)c(CN(Cc3ccc4c(c3)OCO4)C(=O)c3ccco3)cc2c1
  i	-0.14
O=C(c1ccccc1F)N1CCN(c2cccc(C(F)(F)F)c2)CC1
  i	0.41
O=C(NCc1ccco1)c1ccc(COc2cc(Cl)ccc2Cl)cc1
  i	0.52
Cc1cccc(C)c1Nc1nnc(SCc2nc3ccccc3s2)s1
  i	-0.71
CCC1Oc2ccc(C)cc2N(CC(=O)NCc2cc(OC)ccc2OC)C1=O (stereo not given)
  i	-0.05
C/C(=N\Nc1ccc(S(=O)(=O)Nc2ccccc2)cc1[N+](=O)[O-])c1ccncc1
  i	-2
Cc1ccc(C)c(OCC(O)CN2CCC(Cc3ccccc3)CC2)c1 (stereo not given)
  i	0.01
BrC(/C=C\c1ccccc1)=N/Nc1nc(N2CCOCC2)nc(N2CCOCC2)n1
  i	2.5
Cc1ccccc1N(CC(=O)NC1CCCC1)C(=O)C1(C)CC(=O)N=C2C=CC(Cl)=CN21 (stereo not given)
  i	-0.2
CNC(=O)COC(=O)c1ccc2c(c1)NC(=O)C1CCCN21 (stereo not given)
  i	3.3
Cc1cc(C)c(S(=O)(=O)Nc2cc(C)on2)c(C)c1
  i	-0.07
O=C(O)c1cccc(NC(=O)c2ccccc2NC(=O)c2ccco2)c1
  i	1.3
CCC(C)N(C(=O)COC(=O)Cc1n[nH]c(=O)c2ccccc12)C1CCS(=O)(=O)C1 (stereo not given)
  i	-0.98
O=C(N/C(=C/c1ccccc1)C(=O)N1CCCCCC1)c1ccccc1
  i	0.11

Sorted by length of the SMILES (smallest number first): some entries from above.
Sequence of screens – KCNQ2 inh	KCNQ2 inh baseline
Cc1cccc(C)c1Nc1nnc(SCc2nc3ccccc3s2)s1
  i	-0.71
Cc1ccc(C)c(OCC(O)CN2CCC(Cc3ccccc3)CC2)c1 (stereo not given)
  i	0.01
CCC1Oc2ccc(C)cc2N(CC(=O)NCc2cc(OC)ccc2OC)C1=O (stereo not given)
  i	-0.05
Cc1ccccc1N(CC(=O)NC1CCCC1)C(=O)C1(C)CC(=O)N=C2C=CC(Cl)=CN21 (stereo not given)
  i	-0.2
CCCCCCSc1ccc([C@H]2N[C@@](Cc3ccccc3)(C(=O)OC)[C@H]3C(=O)N(CC)C(=O)[C@@H]23)cc1
  i	-1.4

(next part)
Sequence of screens – KCNQ2 inh	KCNQ2 inh baseline
CCn1c(CNc2nc3ccccc3n2C(C)C)nc2ccccc21
  -8.3*	0.16*
Cc1cc(C)nc(NC(=S)NC(=O)c2ccccc2)n1
  i	0.77
COc1ccc(CCNC2=CC(=O)CC(C)(C)C2)cc1
  i	0.19
Cc1ccc(N(CC(=O)O)S(=O)(=O)c2cccc3nonc23)cc1
  i	-0.42
CCn1c(C(C)NC(=O)c2cccs2)nc2ccccc21 (stereo not given)
  i	-0.63
COc1ccc(C)cc1NC(=O)C(CCS(C)(=O)=O)NC(C)=O (stereo not given)
  i	2.3
COc1ccccc1OCC(=O)Nc1cccc(-c2nnc(-c3ccco3)o2)c1
  i	0.83
Cc1ccc(CN2CCN(CCCn3cccn3)CC2CCO)cc1 (stereo not given)
  i	-0.11
Cc1sc2nc(CN3CCOCC3)nc(NCCc3ccccc3)c2c1C
  i	-1.6
Cc1cccc(N2CCN(C(=O)c3noc4c3COc3ccc(C)cc3-4)CC2C)c1 (stereo not given)
  i	0.96
O=C(N/N=C/c1ccc[nH]1)c1sc2ccccc2c1Cl
  i	-0.61
CSc1nsc(SCC(=O)N2CCCCC2)n1
  i	0.5
COc1ccc(C(=O)OCC(=O)NCC2CCCCC2)cc1S(=O)(=O)N1CCCc2ccccc21
  i	-0.41
COc1ccc(-n2c(Cc3cccn3C)nnc2SCC(=O)N2CCCC2)cc1
  i	0.81
COc1cc(OC)c(N(C)C(=O)c2cc3c(s2)-c2ccccc2S(=O)(=O)C3)cc1Cl
  i	-0.87
CNC(=O)COc1ccc(S(=O)(=O)Nc2ccccc2)cc1
  i	-2.5
CC1=CC(C)C2COC(c3ccc[n+](C)c3)C1C2C (stereo not given)
  i	-0.08
CC(=O)c1nnn(-c2ccc([N+](=O)[O-])cc2C)c1C
  i	0.71
O=C(NNC(=O)c1ccccc1Cl)c1ccncc1
  i	0.36
COc1ccc(N(CC(=O)Nc2ccc(F)cc2F)S(=O)(=O)c2c(C)nn(C)c2C)cc1
  i	0.52

Continuation:
Sequence of screens – KCNQ2 inh	KCNQ2 inh baseline
O=C(NC(=S)Nc1ccccc1N1CCOCC1)c1cccs1
  i	-1.1
CCCCC(NC(=O)Cc1c(C)c2cc3c(C)c(C)oc3c(C)c2oc1=O)C(=O)O (stereo not given)
  i	1.5
Cn1cc(S(=O)(=O)N2CCN(Cc3ccccc3)CC2)c(=O)n(C)c1=O
  i	1.7
Cc1cc(C)c(NC(=O)CN2CCC(NC(=O)NC3CCCCC3)CC2)c(C)c1
  i	1.3
COc1cc(/C=N/NC(=O)COc2cc(C)cc(C)c2)ccc1OS(=O)(=O)c1ccc(C)cc1
  i	2.1
Cc1csc(=Nc2cccnc2)n1CC1CCCCC1
  i	0.04
O=C(OCC(=O)N1CCN(c2ccccc2)CC1)c1cccc(Cl)c1
  i	-2
O=C(NNC(=O)c1nn(-c2ccc(F)cc2)ccc1=O)c1ccccc1Cl
  i	1.4
CCOc1ccc(N(CC(=O)Nc2ccc(C)cc2)S(C)(=O)=O)cc1
  i	2
Cn1c(CC(=O)Nc2ccc(Cl)c(Cl)c2)nnc1SCC(=O)NCc1ccccc1
  i	0.45
NS(=O)(=O)c1ccc(-c2ccc(/C=C3\C(=O)Nc4cc(Cl)ccc43)o2)cc1
  i	-0.01
CCN(CC)S(=O)(=O)c1ccc(N2CCOCC2)c(NC(=O)C(=O)c2c(-c3ccccc3)cc3ccccn23)c1
  i	-0.15
COc1ccc(Cc2nnc(NC(=O)C3CC(=O)N(c4ccc(OC)cc4)C3)s2)cc1 (stereo not given)
  i	-2.1
Cc1ccc(/C=N/N2CCN(Cc3cccc4ccccc34)CC2)o1
  i	0.05
Cc1cc(C)cc(NC(=O)CSCc2nc3c(nnn3Cc3ccc(F)cc3)c(=O)[nH]2)c1
  i	0.05
Cc1ccc(OCCCC(=O)Nc2ccc(S(N)(=O)=O)cc2)cc1
  i	-0.16
CCOC(=O)c1nn(-c2ccc(C)cc2)cc1C(=O)c1ccccc1
  i	-1.7
O=C(Cn1cnc2c(nnn2Cc2ccc(F)cc2)c1=O)NCc1ccccc1
  i	-0.65
O=c1c(-c2ccc(Cl)cc2)coc2c(CN3CCOCC3)c(O)ccc12
  i	0.33
COc1cc2ccccc2cc1C(=O)OCC(=O)NC1CCS(=O)(=O)C1 (stereo not given)
  i	-1.7

(cont.)
Sequence of screens – KCNQ2 inh	KCNQ2 inh baseline
CC(C)C(=O)Nc1c(C(=O)N2CCN(c3ncccn3)CC2)oc2ccccc12
  i	-0.2
Cc1ccc(N/C=C/C(=O)c2ccccc2)cc1Br
  i	0.23
Cc1ccc(S(=O)(=O)NCCSCc2ccccc2)cc1
  i	0.04
COC(=O)C[C@H]1c2cc(C(F)(F)F)ccc2S(=O)(=O)N1C(C)(C)C
  i	0.01
O=c1cc(C(F)(F)F)nc(SCc2cccnc2)[nH]1
  i	0.73
CC(=O)Nc1cccc(OC(=O)COc2ccc(Br)cc2)c1
  i	-0.45
COC(=O)c1ccc(C(=O)N(C)C2CCCN(Cc3ccccc3F)C2)cc1 (stereo not given)
  i	0.15
Cc1onc(C(=O)N2CCOCC2)c1[N+](=O)[O-]
  i	0.47
COc1ccc(N2CCN(C(=O)CNC(=O)Cc3ccccc3)CC2)cc1
  i	-0.02
CCCNC(=O)c1nnsc1S(=O)c1ccc(Cl)cc1 (stereo not given)
  -6.8*	0.94*
CC(=O)c1ccc(N2CCN(S(=O)(=O)c3ccc4c5c3CC(=O)N5CC(C)S4)CC2)cc1 (stereo not given)
  i	1.7
Cc1nc2ccccc2c(=O)n1/N=C/c1ccccc1Cl
  i	-0.67
Cc1ccc(S(=O)(=O)N2CCCC2C(=O)OCc2ccccc2)cc1 (stereo not given)
  i	0.93
COC(=O)/C(=C/c1c[nH]c2ccccc12)NC(C)=O
  i	0.4
CN(C1(C)CCS(=O)(=O)C1)S(=O)(=O)c1cccc([N+](=O)[O-])c1 (stereo not given)
  i	1.9
Cc1nc(NC(=O)c2ccc3c(c2)OCCO3)ccc1Br
  i	-1.1
O=C(NCc1cccnc1)/C(=C/c1ccco1)NC(=O)c1ccccc1
  i	-0.09
CN(C(=O)c1ccc2c(c1)CCN2S(C)(=O)=O)c1ccccc1
  i	-1.3
CC(=O)Nc1ccc(S(=O)(=O)c2ccc(C)cc2)cc1
  i	-0.16
S=c1[nH]nc(-c2ccccn2)n1/N=C/c1ccc(Br)s1
  i	0.98

The list continues:
Sequence of screens – KCNQ2 inh	KCNQ2 inh baseline
CCNC(=O)c1ccccc1NC(=O)C1CC(=O)N(C(C)C)C1 (stereo not given)
  i	-2.6
Cc1ccccc1C(=O)Nc1ccc(-c2nc3ccc(C(=O)c4ccccc4)cc3[nH]2)cc1
  i	-0.2
C=CCOc1c(Cl)cc(CNc2ccc3[nH]c(=O)[nH]c3c2)cc1OC
  i	2.5
O=C(Cn1cccc1C(=O)c1ccccc1)NCc1ccccc1Cl
  i	-0.32
C=CCn1cnc2c(nnn2-c2ccc(C)c(Cl)c2)c1=O
  i	0.64
COc1ccc(/C=C/C(=O)NC(=S)NNC(=O)c2cccs2)cc1
  i	1.3
COc1cccc(C2=CC(c3cccc(OC)c3OC(F)F)n3nnnc3N2)c1 (stereo not given)
  i	-0.31
CCOc1ccc(NC(=O)C[n+]2ccccc2)cc1
  i	-0.19
COc1ccc(NC(=O)Nc2cc(NC(=O)Nc3ccc(OC)cc3)c(C)nc2C)cc1
  i	-0.61
O=C1SC(c2ccccc2)=C/C1=C\N1CCCCC1
  i	0.39
COC/C=C/C1=CC2=CC(=O)C(C)(OC(=O)c3cnc4ccccc4n3)C(=O)C2=CN1Cc1ccc(OC)cc1 (stereo not given)
  i	-0.41
COc1ccccc1C(O)P(=O)(OC(C)C)c1ccc(N(C)C)cc1 (stereo not given)
  i	0.95
O=C(COc1ccc(F)c(Cl)c1)N1CCCCCCC1
  i	-0.97
S=C(Nc1ccc(Cl)cc1)NN1CCOCC1
  i	0.29
Cc1cc(Br)ccc1SCC(=O)OCC(=O)NC1CC1
  i	-1.7
CCOC(=O)C(CCC(=O)O)(CCC(C)C)c1csc(N)n1 (stereo not given)
  i	0.41
C=CCOC(=O)CCCC(=O)NC1CCCCC1
  i	-1.1
Cc1cc(C)cc(N(CCC(=O)O)S(=O)(=O)c2ccc3ccccc3c2)c1
  i	-0.11
Cc1ccc(S(=O)(=O)N2CC(O)CC2C(=O)Nc2ccc3c(c2)CCC3)cc1 (stereo not given)
  i	0.31
O=[N+]([O-])c1ccc(NC(=S)NCCc2ccc(Cl)cc2)cc1
  i	0.75

Entries listed so far with a CF3 group:
Sequence of screens – KCNQ2 inh	KCNQ2 inh baseline
O=C(c1ccccc1F)N1CCN(c2cccc(C(F)(F)F)c2)CC1
  i	0.41
COC(=O)C[C@H]1c2cc(C(F)(F)F)ccc2S(=O)(=O)N1C(C)(C)C
  i	0.01
O=c1cc(C(F)(F)F)nc(SCc2cccnc2)[nH]1
  i	0.73

(list continues)
Sequence of screens – KCNQ2 inh	KCNQ2 inh baseline
CCCCN(CC)C(=S)Nc1ccc2nc(N3CCN(C)CC3)cc(C)c2c1
  i	1.7
O=C(c1ccc(COc2ccccc2Br)o1)N1CCN(c2ccccn2)CC1
  i	-1.1
CC(=O)C1=C(C)OC(N)=C(C#N)C1c1cc2cccc(C)c2nc1Cl (stereo not given)
  i	1
Cc1ccc(OCC(=O)Nc2ccccc2C(N)=O)cc1
  i	2.2
Cn1c(=O)cc(SCC(=O)N2CCN(c3ccccc3)CC2)c2ccccc21
  i	1
CC1CCN(C(=O)COC(=O)C2CCN(S(=O)(=O)c3ccc(Cl)c(C(F)(F)F)c3)CC2)CC1
  i	0.16
COc1ccc([N+](=O)[O-])cc1NC(=O)CN(C)S(=O)(=O)c1ccccc1
  i	-0.92
CCc1ccccc1NC1c2ccccc2C(=O)N1Cc1ccco1 (stereo not given)
  i	-2.9
CCOCCn1c(SCc2cccc(C)c2)nc2c1c(=O)[nH]c(=O)n2C
  i	0.03
O=C1c2ccccc2CN1CCSC(=S)N1CCSCC1
  i	-0.52
CS(=O)(=O)N(CC(=O)Nc1ccccc1-c1ccccc1)c1ccc(F)cc1
  i	-0.22
COc1cccc(C(C(=O)NC(C)(C)C)N(Cc2ccco2)C(=O)CCC(=O)Nc2cc(C)on2)c1OC (stereo not given)
  i	-0.09
CCOC(=O)c1c(S(=O)(=O)NCC(=O)Nc2cc(C)ccc2C)c(C)n(C)c1C
  i	1.5
COC(=O)c1ccc(C2=NOC(C)(c3nnc(Cc4ccccc4)o3)C2)cc1 (stereo not given)
  i	2.3
